Screening data (PubChem BioAssay)
PINK1 expr mod = PINK1 expression modulation; PINK1 immunofluorescence, high-content cytometry, 24 h; Potency, µM (doses to about 76.6 µM), for the others: at the highest dose activation (PINK1 increase), actives largely listed as activators; hit rate 0.2% among 410,000; active = well fitted activation curve with a large enough effect; inconclusive = small, poorly fitted or top-dose-only effect; inactive = flat fitted curve, though single readings scatter; cell line not stated here;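 note: potency is the fitted concentration of half-maximal effect; % of control where 0% means no effect; nearly all actives have a fitted effect of over 65% in size; a mitochondrial uncoupler was the plate control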
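Stable cell line, 250 cells/well, 12 h attachment; compounds pinned at 5 concentrations, 24 h; CCCP control. Fixed with nuclear dye, primary antibodies 12 h at 10 degrees C, secondary plus cell stain; laser-scanning cytometer read.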
gsp ag = agonists of gsp mutant (McCune-Albright syndrome) | gsp mutant cells, cAMP HTRF, 30 min; control for the full effect not named in the record | Potency, µM (top dose mostly 76.9 µM), for the others: top-dose activation (cAMP increase), actives largely listed as activators | hit rate 0.13% among 340,000 | AID 624287; active = well fitted activation curve with a large enough effect; inconclusive = small, poorly fitted or top-dose-only effect, or another doubt; inactive = no such curve, though single readings can be large or run the other way; cell line not stated here;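 note: phosphodiesterase inhibitor Ro 20-1724 added with compounds to block cAMP breakdown; potency is the fitted concentration of half-maximal effect; nearly all actives have a fitted effect of over 60% in size; about a fifth of the inactives were tested at one dose only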
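Cells stably selected in G418 were plated at 2000/well, grown 16-24 hr, then given compounds in DMSO with the PDE inhibitor […] (300 uM solution added) for 30 min at 37C; cAMP was read by HTRF.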
D2 ag = human D2 receptor agonism in beta-arrestin assay; P14416; DiscoveRx PathHunter D2 beta-arrestin, luminescence, 90 min; 100% = 57 uM dopamine signal; activation, % (no concentration beside the values); hit rate 0.084% among 360,000; AID 624465; in the data active = activation above about 40%; inconclusive = about 15% to 40%; inactive = below about 15%; note: compound concentration not given in the record; the text of the record calls up to 30% inactive
Target sequence (P14416 whole entry, looked up): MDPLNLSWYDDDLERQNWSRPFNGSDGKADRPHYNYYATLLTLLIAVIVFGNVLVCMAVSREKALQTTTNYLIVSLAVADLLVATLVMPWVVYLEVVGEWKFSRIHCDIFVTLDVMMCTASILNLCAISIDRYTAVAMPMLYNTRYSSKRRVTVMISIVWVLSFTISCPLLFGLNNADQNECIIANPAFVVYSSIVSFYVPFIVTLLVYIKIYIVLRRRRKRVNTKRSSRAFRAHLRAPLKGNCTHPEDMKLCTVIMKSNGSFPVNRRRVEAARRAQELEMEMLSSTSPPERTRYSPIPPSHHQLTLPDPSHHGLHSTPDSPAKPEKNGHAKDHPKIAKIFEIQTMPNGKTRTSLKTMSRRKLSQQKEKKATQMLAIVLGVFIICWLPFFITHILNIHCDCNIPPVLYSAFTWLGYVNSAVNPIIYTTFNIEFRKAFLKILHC
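DiscoveRx PathHunter D2 beta-arrestin cells (2,100/well) attached overnight, then compound-stimulated 90 min at 37 C in HBSS/10 mM HEPES/0.1% Tween-20 buffer; beta-galactosidase complementation read by luminescence after 1 h at ambient temperature. Dopamine 57 uM final (EC100) as control.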
gsp antag = antagonizes gsp, the McCune-Albright syndrome mutation | gsp-mutant cells, cAMP HTRF, 30 min; control for the full effect not named in the record | Potency, µM (highest dose often 76.9 µM), inactives show at the highest dose activity change, negative = inhibition, usual class: inhibitors | hit rate 0.4% among 340,000; active = falling curve of any shape with a large fitted effect; inconclusive = falling curve, mostly with a smaller effect; inactive = flat or rising curve; cell line not stated here;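 note: intracellular cAMP measured with PDE inhibitor Ro 20-1724 present during compound exposure; potency is the fitted concentration of half-maximal effect; % is set by controls: 0 for no effect and ±100 for the full control effect; nearly all actives have a fitted effect of over 65% in size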
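Measurement of cellular cAMP by homogeneous time-resolved fluorescence following a 30 min compound exposure at 37C. The PDE inhibitor […] was present throughout; the assay buffer was DPBS with 0.05% BSA and 0.005% Tween 20.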
Sfp PPTase inh = blocks B. subtilis Sfp PPTase activity; Q9F4F7; Biochemical Sfp PPTase activity, qHTS; Potency, µM, for the others: max response, negative = inhibition, most hits filed as inhibitors; hit rate 3.5% among 310,000; active = well fitted inhibition curve with a large enough effect; inconclusive = small, poorly fitted or top-dose-only effect, or another doubt; inactive = no such curve, though single readings can be large or run the other way;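 note: the enzyme is Sfp with the accession as filed and its product quenches rhodamine fluorescence; potency is the fitted concentration of half-maximal effect; 0% = enzyme reaction without inhibitor and -100% = no enzyme wells; top concentration of the series not given in the record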
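Buffer: 50 mM Hepes-Na pH 7.6, 10 mM MgCl2, 0.01% Nonidet P-40, 0.01% BSA. Enzyme 15 nM, pre-exposed to compound 15 min; substrates then added and fluorescence change tracked over 30 min.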
Menin MLL FP FL = menin-MLL binding inhibition, fluorescein peptide. 290,000 tested, under 10 active. Fluorescence polarization, fluorescein-MLL peptide displacement from menin. FP activity change, % at 61.4 µM; inconclusive = falling polarisation curve, or a change in total fluorescence; inactive = total fluorescence flat and polarisation flat or rising; no compound was filed as active; the % refers to the polarisation; negative = inhibition;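 note: % of control where 0% means no effect; inhibitors lower the polarisation; unlabelled MLL peptide was the positive control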
ClpP mod = qHTS Assay for Activators of ClpP; purified B. subtilis ClpP, FRET peptide cleavage, 20 min; Potency, µM (highest dose often 57.5 µM), for the others: top-dose activity change, negative = active; ATP-dependent Clp protease proteolytic subunit (Bacillus subtilis (strain 168)), P80244; AID 651965, 2013; hit rate 1.9% among 340,000; active = well fitted falling curve with a large enough effect; inconclusive = small, poorly fitted or top-dose-only effect; inactive = no such curve, though single readings can be large or run the other way; note: potency is the fitted concentration of half-maximal effect; the source files actives as falling curves though it sought activators and does not explain the sign; nearly all actives have a fitted effect of over 65% in size; many hits overshoot -100%
Target sequence (P80244 whole entry, looked up): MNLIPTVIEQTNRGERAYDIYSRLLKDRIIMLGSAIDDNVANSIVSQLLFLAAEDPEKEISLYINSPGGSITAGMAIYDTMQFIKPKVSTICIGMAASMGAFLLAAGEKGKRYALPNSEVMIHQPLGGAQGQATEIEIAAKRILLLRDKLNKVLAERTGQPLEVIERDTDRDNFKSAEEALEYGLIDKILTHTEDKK
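Buffer: 100 mM Tris/HCl pH8, 100 mM KCl, 0.05% low protease BSA, 2.5% glycerol, 0.01% Tween-20. ClpP 10 microg/mL final; 20 min RT; delta FRET normalized to ADEP and DMSO controls.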
* hit, by the source's call; ? = inconclusive; . = no result given; [ ] = dose if it differs, or a comment. Random draw from the library; any-hit rate near 5.1%.

Structure | PINK1 expr mod | gsp ag | D2 ag | gsp antag | Sfp PPTase inh | Menin MLL FP FL | ClpP mod
Cn1c(=O)c2c(nc(N3CCCCCC3)n2CCSc2nc3ccccc3o2)n(C)c1=O | 3.4% | ? | 1.9 | -11% | 6% | -0.4 | 1.6%
CC1CCCCN1CC(=O)Nc1sccc1C#N (configuration not stated) | 2.5% | 0% | 1.9 | 4% | 15% | -0.9 | -2.9%
CC(=O)CC1(O)C(=O)Nc2ccccc21 (configuration not stated) | 1.5% | ? | -6.5 | 12% | -1% | 1.0 | -1.9%
C[C@H](NC(=O)c1ccc(Cl)cc1)C(=O)OCn1nnc2ccccc2c1=O | 1.8% | -26% | -1.7 | -7% | . | . | -1.7%
COCc1c(C(=O)OCC(=O)N2c3ccccc3NC(=O)C2(C)C)oc2ccccc12 | -3.3%[38.3 µM] | -25% | 1.2 | -15% | 14% | 2.8 | -7.5%
O=C(CN1C(=O)S/C(=C\c2ccccc2Cl)C1=O)NC1C=CS(=O)(=O)C1 (configuration not stated) | -0.5% | 16% | -2.9 | -6% | -3% | 3.8 | .
Cc1ccc(C23CC4CC(CC(C(=O)NC(C)C(=O)O)(C4)C2)C3)cc1 (configuration not stated) | -0.4% | -8%[15.4 µM] | -2.7 | ? | 17% | -17 | 0.5%
COc1ccc(OCC(=O)Nc2cc(NC(=O)COc3ccc(OC)cc3)cc(C(=O)O)c2)cc1 | 1.6% | 0% | -1.0 | 8% | 9% | -1.3 | 0.0%
COc1cccc(NC(=O)CN(c2ccc(C)cc2)S(=O)(=O)c2c(C)nn(C)c2C)c1 | 3.8%[38.3 µM] | 0% | -1.8 | -14% | -5% | 1.3 | 1.1%
CC1(C(=O)NS(=O)(=O)C2CC2)CCCN(C(=O)c2cccc(Cl)c2)C1 (configuration not stated) | 0.2% | . | -3.2 | . | . | . | -2.2%
COc1ccc(CCN(C)Cc2nc(Cc3ccc(OC)c(OC)c3)no2)cc1OC | 0.7% | -27% | -1.0 | -10% | 6% | 5.8 | -2.0%
CC1(C(=O)NCCC(F)(F)F)Cc2c(-c3cccc(C(F)(F)F)c3)ccnc2O1 (configuration not stated) | 7.4% | . | -1.3 | . | . | . | -8.0%
Cc1ccc(NN2C(=O)C=C(c3ccc(Cl)cc3)C2=O)cc1 | -6.3% | ? | -3.9 | -7% | ? | -1.1 | -2.2%
Cc1ccc(-c2nnn(CC(=O)N(CCCO)C(C(=O)NC3CCCC3)c3ccc(F)cc3)n2)o1 (configuration not stated) | 1.6% | -19%[15.4 µM] | -2.1 | 5% | 3% | -7.8 | .
Cc1ccc(C(=O)NCC(=O)OCC(=O)c2ccccc2)s1 | -1.3% | -65%[inhibitor] | -4.3 | -1% | . | . | 0.7%
O=C(CNc1ccc(Br)cc1)c1ccccc1 | -29%[38.3 µM] | -39%[inhibitor] | -12 | -4% | 2% | 3.2 | -0.8%
Cc1oc(-c2ccccc2Cl)nc1CS(=O)CC(=O)NCc1ccc2c(c1)OCO2 (configuration not stated) | 0.3% | -34%[inhibitor] | -1.4 | -8% | 14% | . | -4.9%
Cc1cc(C)nc(/N=C(\N)Nc2cc([N+](=O)[O-])ccc2C)n1 | -1.1% | -36%[inhibitor] | -1.7 | 10% | 24% | 0.6 | -0.5%
COC(=O)c1c(NC(=S)NC(=O)c2ccco2)sc2c1CCCC2 | 7.9% | -9%[15.4 µM] | -3.0 | 5% | 13% | 2.6 | -1.6%
Cc1cc(C)nc(NCCCc2ccccc2)n1 | 1.9%[38.3 µM] | 1% | -1.1 | 1% | 4% | -0.9 | -22%
COc1ccccc1-n1c(C)c(C(C)=O)c2cc(O)ccc21 | 6.9% | 14%[15.4 µM] | -5.1 | -5% | 4% | -0.9 | -1.6%
O=C(O)/C=C(\Oc1ccccc1)C1(O)CCCCC1 | 1.0% | 6% | -5.9 | 8% | 17% | 2.3 | -0.1%
CCOc1ccc(NC(=O)C2CC(=O)N(c3cc(C)cc(C)c3)C2)cc1 (configuration not stated) | -1.5% | -34%[inhibitor] | 3.0 | -9% | 10% | 0.9 | 2.8%
Cc1cccc([C@@H]2[C@@H]3C(=O)N(Cc4ccccc4)C(=O)[C@@H]3[C@]3(C)C(=O)N(c4cccc(F)c4)C(=O)N23)c1 | -1.5% | . | -2.0 | 28µM* | . | . | -0.9%
COc1ccc(C2=Nc3cccc4cccc(c34)N2)cc1 | 2.5%[38.3 µM] | -45%[inhibitor] | -0.2 | 4% | 13% | 5.1 | -0.5%
CC(C)OCCCNCC(O)c1ccccc1 (configuration not stated) | 2.8% | 18% | 1.0 | 13% | -13% | 6.8 | 3.3%
Cc1[nH]nc2c1C(c1ccc(N(C)C)cc1)C1=C(CC(C)(C)CC1=O)N2 (configuration not stated) | -0.7% | -2% | -3.0 | -10% | 16% | -0.1 | .
Cc1ccc(NC(=O)C2CCN(S(=O)(=O)c3ccc4c(c3)NC(=O)CO4)CC2)cc1 | -0.1% | -7% | -2.7 | 2% | 8% | . | .
Cc1oc2c(c(C)cc3oc(=O)c(CC(=O)NCCC(=O)O)c(C)c32)c1C | -2.4% | ? | 3.2 | 4% | 15% | 1.8 | .
COc1ccc(C(=O)N/C(=C/c2cccs2)C(=O)N2CCN(C)CC2)cc1 | -0.3% | 20% | -1.4 | . | . | . | 0.0%
Cc1ccc(C2C(=O)c3ccccc3C2=O)cc1 | -1.9% | 19%[15.4 µM] | -1.9 | 8% | 2% | -9.3 | -2.7%
O=C(CN1C(=O)c2ccccc2S1(=O)=O)NCCSCc1ccccc1Cl | -1.9% | 7% | -0.6 | -9% | 13% | -0.4 | .

Just PINK1 expr mod, D2 ag and Sfp PPTase inh, for some of the entries so far:
Molecule	PINK1 expr mod	D2 ag	Sfp PPTase inh
CC(C)OCCCNCC(O)c1ccccc1 (configuration not stated)	2.8%	1.0	-13%
Cc1[nH]nc2c1C(c1ccc(N(C)C)cc1)C1=C(CC(C)(C)CC1=O)N2 (configuration not stated)	-0.7%	-3.0	16%
Cc1ccc(NC(=O)C2CCN(S(=O)(=O)c3ccc4c(c3)NC(=O)CO4)CC2)cc1	-0.1%	-2.7	8%

Further results follow.
Structure | PINK1 expr mod | gsp ag | D2 ag | gsp antag | Sfp PPTase inh | Menin MLL FP FL | ClpP mod
COc1ccc2c(c1)CCN=C2Cc1ccc(OC)c(OC)c1 | 2.4% | ? | -11 | 1% | -5% | 5.6 | ?
N#Cc1c(-c2ccccc2)c(C#N)c2nc3ccccc3n2c1N | 14% | -2%[15.4 µM] | -1.2 | 7% | 10% | 2.2 | -7.3%
CC(C)NC(=O)COc1nncc2ccccc12 | 1.9% | -18%[15.4 µM] | 5.4 | . | 28% | -0.6 | .
CCc1ccc(C(=O)Nc2nc3ccccc3[nH]2)cc1 | 3.2% | 7% | 3.7 | 5% | 37%[activator] | 0.3 | -27%
CC(C)(C)NC(=O)CSc1nc(Cc2ccccc2)nc2ccccc12 | 0.2% | 20% | -2.5 | -11% | 16% | -0.9 | 2.1%
Cc1cc(C)c(NS(=O)(=O)c2ccc3c(c2)n(C)c(=O)n3C)c(C)c1 | 1.2% | 1% | -4.3 | -12% | 3% | 1.5 | -1.6%
O=C(O)CCCCCn1c(SCc2cc(=O)n3cc(Cl)ccc3n2)nc2ccsc2c1=O | -1.4% | ? | -3.7 | 5% | -12% | -4.1 | ?
O=C(COC(=O)[C@@H]1CCCN1S(=O)(=O)c1ccc(Cl)cc1)NCC(F)(F)F | 2.1% | 0% | 1.0 | -18% | -15% | 4.7 | 7.3%
O=C(CN1C(=O)CCS(=O)(=O)c2ccccc21)Nc1cccc(Cl)c1 | -0.7% | -29% | -1.6 | -2% | 9% | -0.8 | -2.1%
CC(NC(=O)Nc1ccc(Cl)cc1)c1ccccc1 (configuration not stated) | 14% | 6% | -2.9 | 1% | 7% | -5.4 | 1.4%
Cc1cc(C(=O)COC(=O)c2n[nH]c3ccccc23)c(C)n1CC1CCCO1 (configuration not stated) | -2.4% | 20% | -3.5 | 1% | 2% | 0.5 | -0.4%
O=C1c2ccccc2NC(c2ccccc2)N1Cc1ccccc1 (configuration not stated) | 2.8% | 1%[15.4 µM] | 0.2 | -8% | . | . | -2.9%
CC1CC(C)CN(C(=O)COC(=O)c2cc([N+](=O)[O-])ccc2N2CCOCC2)C1 (configuration not stated) | 0.1% | 17%[15.4 µM] | 1.0 | 4% | . | . | 1.2%
O=S(=O)(c1ccccc1)c1nc(Cc2ccccc2)oc1N1CCOCC1 | 1.3% | -1%[15.4 µM] | -5.2 | -5% | 45µM* | 0.6 | .
COc1ccc(CN2CCN(Cc3cc4ccccc4o3)CC2CCO)c(F)c1 (configuration not stated) | -1.1% | -1% | -4.8 | -4% | 20% | -3.7 | -0.5%
CNS(=O)(=O)c1ccc(NC(=O)c2csc(C)c2)cc1 | -0.7% | 19% | 0.3 | 10% | 21% | . | -0.6%
Cn1c(=O)c2c(C(=O)O)cc(-c3ccccc3)nc2n(Cc2ccccc2)c1=O | 1.7% | 24%[15.4 µM] | -1.3 | -16% | -8% | ? | .
CCOc1ccc(N2C(=O)CC(S/C(N)=N/N=C/c3cccs3)C2=O)cc1 (configuration not stated) | 12% | -23% | -3.3 | -1% | 2% | 2.8 | -0.2%
CN(C)Cc1cc(OCc2ccccc2)cc(CN(C)C)c1O | 0.2% | 3% | -6.3 | . | . | . | -2.3%
CCOC(=O)C1=CN(CC2CCCO2)C=C(C(=O)OCC)C1c1ccccc1C(F)(F)F (configuration not stated) | 6.2% | 4%[15.4 µM] | -2.5 | -8% | 40µM* | -2.5 | 0.9%
COc1ccccc1NC(=O)COC(=O)c1ccccc1OCC(=O)Nc1ccc(SC(F)F)cc1 | 7.8% | -15% | -5.2 | ? | -20% | 5.2 | 9.4%
COc1ccc(C(C(=O)NC2CCCCC2)N(C(=O)Cc2c[nH]c3ccccc23)c2ccc(NC(C)=O)cc2)cc1OC (configuration not stated) | 3.7% | 14% | -0.9 | -4% | 23% | ? | -0.8%
O=C(Nc1ccc(F)c(Cl)c1)c1csc([C@@H]2C[C@H](O)[C@@H](CO)O2)n1 | 3.7% | . | -5.9 | . | . | . | 1.6%
